CDC25B CDK2 inh = primary biochemical HTRF screen for blockers of M-phase inducer phosphatase 2 binding to CDK2/cyclin A. P30305+P24941. HTRF CDC25B-CDK2/CyclinA binding, anti-His/anti-Flag; hits give high values. z-score (test concentration not listed). hit rate 0.72% among 94,000;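 also: score is relative to mean and SD of negative controls; strong numbers were not always called active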
TAR Tat displ = TAR RNA-Tat peptide displacers, HIV-1, primary screen, biochemical, FRET, FAM/TAMRA-labeled Tat | HIV-1 TAR RNA, Tat peptide displacement FRET; hits give high values | z-score (concentration not given with the values) | hit rate 0.6% among 100,000;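 also: score is relative to mean and SD of negative controls; some compounds called inactive have numbers as strong as hits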
Active calls of the source: *; · = not tested or not shown.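 The calls were made as follows: active = z-score from 3 up in half or more of its runs; inactive = the rest.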

The first five entries, to show the layout:
Each structure is followed by: CDC25B CDK2 inh, TAR Tat displ
C1=C(c2ccccc2)SC=C(c2ccccc2)S1
 : -1.7, -0.61
CCCS(=O)(=O)c1ncc(Cl)c(C(=O)N(Cc2ccc(F)cc2)C2CCS(=O)(=O)C2)n1 (configuration not stated)
 : -1.6, 1.6
COc1cc(/C=N/NC(=O)c2c(-c3ccccc3)noc2C)ccc1O
 : -2, ·
Cc1cc(C)c2c(n1)sc1c(Sc3nnc(-c4ccncc4)o3)ncnc12
 : 0.89, ·
O=C(CSc1ccccc1)Nc1nc(-c2nc3ccccc3s2)cs1
 : ·, 1.6

This part in full (from the top)
Each structure is followed by: CDC25B CDK2 inh, TAR Tat displ
C1=C(c2ccccc2)SC=C(c2ccccc2)S1
 : -1.7, -0.61
CCCS(=O)(=O)c1ncc(Cl)c(C(=O)N(Cc2ccc(F)cc2)C2CCS(=O)(=O)C2)n1 (configuration not stated)
 : -1.6, 1.6
COc1cc(/C=N/NC(=O)c2c(-c3ccccc3)noc2C)ccc1O
 : -2, ·
Cc1cc(C)c2c(n1)sc1c(Sc3nnc(-c4ccncc4)o3)ncnc12
 : 0.89, ·
O=C(CSc1ccccc1)Nc1nc(-c2nc3ccccc3s2)cs1
 : ·, 1.6
CCc1ccc(C2c3c(oc4ccc(Cl)cc4c3=O)C(=O)N2CCCN2CCOCC2)cc1 (configuration not stated)
 : -2.1, 0.29
O=C(Nc1nc(-c2ccccn2)cs1)c1ccc2ncsc2c1
 : ·, 1.2
O=C1NC(c2ccccc2)C(C(=O)c2ccc(Br)cc2)C(O)(C(F)(F)F)N1 (configuration not stated)
 : 0.18, ·
CC1CN(c2ccccc2OC(=O)Nc2ccc(OC(F)(F)F)cc2)CC(C)O1 (configuration not stated)
 : -0.59, ·
O=[N+]([O-])c1ccc(NCc2ccco2)c([N+](=O)[O-])c1
 : -2.8, ·

One compound at a time, as listed above:
Entry for `O=C(Nc1nc(-c2ccccn2)cs1)c1ccc2ncsc2c1` : CDC25B CDK2 inh = ·; TAR Tat displ = 1.2
Entry for `Cc1cc(C)c2c(n1)sc1c(Sc3nnc(-c4ccncc4)o3)ncnc12` : CDC25B CDK2 inh = 0.89; TAR Tat displ = ·
Entry for `O=C1NC(c2ccccc2)C(C(=O)c2ccc(Br)cc2)C(O)(C(F)(F)F)N1` (configuration not stated) : CDC25B CDK2 inh = 0.18; TAR Tat displ = ·

Other compounds
Each structure is followed by: CDC25B CDK2 inh, TAR Tat displ
CCOc1ccccc1NC(=O)NC(=O)N(c1ccccc1)S(C)(=O)=O
 : -1.8, -0.01
O=C1c2ccccc2C(=O)c2c(O)ccc(O)c21
 : -0.94, ·
Cc1ccc(-c2csc3nc(N(C)C)cc(=O)n23)cc1
 : -0.43, 0.34
CCSc1nnc(NC(=O)C2CCCN(S(=O)(=O)c3cn(CC)cn3)C2)s1 (configuration not stated)
 : ·, 1.4
CC1(CC(=O)O)C(=O)N=C2C=CC=CN21 (configuration not stated)
 : ·, 1.2
Nc1cccc(-c2cc(-c3ccccc3)nc(-c3cccc(N)c3)n2)c1
 : -0.77, 0.69
CCCCn1c(CN2CCOCC2)nc2c1c(=O)n(C)c(=O)n2C
 : -2.1, ·
Cc1cc(=O)[nH]c(Nc2ccc(N3CCCCC3)cc2)n1
 : -3.3, -0.19
Cc1cccnc1-n1c(C)c(C)c2c1ncn1nc(-c3cccs3)nc21
 : -1.5, 0.67
Nc1nc2ccc(Cl)cc2n2c(-c3ccccc3)nnc12
 : -0.65, ·
O=C(CN1C(=O)COc2ccc(S(=O)(=O)N3CCOCC3)cc21)N1CCc2ccccc2C1
 : -0.67, 1.4
N#CC1=C2SCN(c3ccccc3)CN2C(=O)CC1c1cccs1 (configuration not stated)
 : 17*, -0.09
Fc1ccc(-c2n[nH]c(=S)n2Cc2ccco2)cc1
 : 1.9, ·
Oc1cc(O)cc(/C=C/c2ccc(O)c(O)c2)c1
 : 1.7, 37*
Cc1nc2n(CC(=O)c3cccs3)c3ccccc3n2n1
 : 0.07, ·
CCCS(=O)(=O)c1nc(S(=O)(=O)c2ccc(C)cc2)c(NCCCOC)s1
 : -2.4, 0.89
CC12CN3CC(C)(CN(C1)C3c1cccc(N)c1)C2O (configuration not stated)
 : -2.1, 1.6
Cc1c2cnn(C)c(=O)c2c(C)n1-c1ccccc1
 : -0.38, ·
CN(C)CC1COC(=O)C1=O (configuration not stated)
 : -1.6, ·
Cc1cc(NC(=O)CCC(=O)O)no1
 : -0.72, 0.15
CC1=CCC2C(=O)N(c3ccc(C(=O)OCC(=O)c4ccc(Br)cc4)cc3)C(=O)C2C1 (configuration not stated)
 : -0.66, 0.61
CCc1ccc2nc(NC(=O)c3sc(C)nc3C)sc2c1
 : -1.8, 0.51
Cc1ccc(C(=O)O)cc1N1CCCC1=O
 : ·, 2.8
COC(=O)c1cccc(CSC(=S)N2CCCC2)c1
 : -1.2, ·
CCOC(=O)Cn1c(=O)oc2cc(S(=O)(=O)N3CCCC3)ccc21
 : -1.4, 2.7
O=c1c(-c2ccccc2)c(N2CCN(c3cccc(Cl)c3)CC2)c1=O
 : ·, 0.19
CC(C)(C)c1nc(S(=O)(=O)c2ccccc2)c(NCc2ccccc2)o1
 : 0.39, 0.83
COc1cc(C(C#N)N2CCOCC2)cc(OC)c1OC (configuration not stated)
 : -1, ·
Cc1nn(-c2ccccc2)c2nc(-c3ccccn3)cc(C(F)(F)F)c12
 : -0.92, 1.2
O=C1CCSc2ccc(S(=O)(=O)NCCc3ccco3)cc2N1
 : ·, 2.3
CSc1nc2ccnn2c(=O)[nH]1
 : -0.64, ·
CC1(C)Cc2c(C#N)c(SCCCc3ccccc3)nc(N3CCOCC3)c2CO1
 : -1.1, -0.21
CCOc1ccc(-c2n[nH]c3c2cnc2ccc(C)cc23)cc1
 : -0.44, 1.1
O=S(=O)(CCSc1ncn[nH]1)c1nc2ccccc2s1
 : -0.25, 0.91
Nc1sc2c(c1C(=O)O)CCCC2
 : -1.7, -1.9
CC(C)c1ccc(-c2noc(N3CCC(C(=O)N4CCOCC4)CC3)n2)cc1
 : ·, -1.5
COc1ccc(-c2nnc3c4cc5c(cc4n(Cc4cccc(OC)c4)cc2-3)OCCO5)cc1
 : -1.1, 0.16
COc1cc(-c2cc(OC)c3c(C)oc(C)c3c(=O)c2)ccc1OC(=O)c1cccc(Cl)c1
 : -2.1, 0.1
CCc1ccc(C2N(c3ccc(Cl)cc3)C(=O)C3CCCN32)cc1 (configuration not stated)
 : 2.1, 1.6
COc1ccccc1/C=C/c1nc(C#N)c(NCCN2CCOCC2)o1
 : -0.48, 1.8
OCCOCCNc1ncnc2c1c(-c1ccccc1)cn2-c1ccccc1
 : ·, 2
COC(=O)CSc1nc2sc3c(c2c(=O)n1-c1ccccc1)CCN(C)C3
 : -0.15, 0.71
CCOc1ccc(Nc2ncnc3c2cnn3-c2ccc(C)cc2)cc1
 : -2.5, ·
COc1ccc(NS(=O)(=O)c2ccc(CN3C(=O)c4cccnc4C3=O)s2)cc1Cl
 : ·, -0.85
CCC(C(=O)O)n1c2ccccc2c2cn[nH]c(=O)c21 (configuration not stated)
 : 0.09, 0.33
NCCC(=O)N1c2ccccc2Sc2ccc(Cl)cc21
 : -1.6, ·
COc1ccc(OCC(O)Cn2c(C)[n+](C)c3ccccc32)cc1 (configuration not stated)
 : -0.09, -0.8
CN(Cc1ccccc1)S(=O)(=O)c1ccc(-c2ccc(=O)[nH]n2)s1
 : ·, 1.3
Cc1cc2oc(C(=O)NCC(c3ccco3)N3CCCC3)c(C)c2cc1C (configuration not stated)
 : -0.98, 0.97
O=C(NCc1cccs1)c1ccc(CN2CC(=O)N3CSCC3C2=O)cc1 (configuration not stated)
 : ·, 0.86

The list goes on.
Each structure is followed by: CDC25B CDK2 inh, TAR Tat displ
Cc1cc(=O)nc2c3ccccc3n(CC(=O)NCc3cccs3)n12
 : 0.41, -1
COc1ccc(-c2cnc3c(-c4ccccc4)cnn3c2N)cc1OC
 : -1.1, 0.78
CCCCc1[nH]nc2c1C1(CCN(C(=O)OCC)CC1)C(C#N)=C(N)O2
 : 0.97, 1
COC(=O)c1ccsc1NC(=O)CN1CCN(S(=O)(=O)c2ccc(Cl)cc2)CC1
 : -2.4, ·
CSc1cccc(NC(=O)CSc2nnc(C)n3c2cc2oc(C)cc23)c1
 : ·, 0.7
COC(=O)c1ccc(C2c3c(oc4ccccc4c3=O)C(=O)N2CCCN2CCOCC2)cc1 (configuration not stated)
 : -0.46, 0.48
Cc1ccc(-c2cnc(-n3c4c(cc(C#N)c3=O)C(=O)CC(c3ccco3)C4)s2)cc1C (configuration not stated)
 : -0.57, -5.4
O=c1cc(-c2ccc3c(c2)OCO3)oc2ccccc12
 : -1.6, ·
Cc1ccccc1Cn1nc(-c2ccc(C)c(S(=O)(=O)N3CCCC3)c2)ccc1=O
 : -0.48, 0.03
CC(NC(=O)CCS(=O)(=O)c1cc2c(cc1Cl)NC(=O)CO2)c1ccc2c(c1)OCCO2 (configuration not stated)
 : ·, 0.68
Cc1ccc2ccc(C(Nc3ccccn3)c3ccc4c(c3)OCO4)c(O)c2n1 (configuration not stated)
 : -0.82, ·
CCN1CCCC1CNC(=O)c1cc2c(=O)n(C)c3cc(Cl)ccc3c2s1 (configuration not stated)
 : 2.4, 0.28
Cn1c(=O)c2ccccc2[s+]1-c1cccc2cccc(C(=O)O)c12 (configuration not stated)
 : -1.1, ·
CC(CCC(=O)O)[C@H]1CCC2C3C(=O)C[C@@H]4CC(=O)CC[C@]4(C)C3CC(=O)[C@@]21C (some centres not stated)
 : ·, 1.6
C#CCNc1c2c(nc3nncn13)CCC2
 : -2.6, -1.2
Cc1cc(C)cc(N2C(=O)N(Cc3cc(C)ccc3C)C3CS(=O)(=O)CC32)c1 (configuration not stated)
 : ·, 0
CCOC(=O)c1c(C)oc2ncnc(NC(C)CCc3ccco3)c12 (configuration not stated)
 : ·, 0.68
CC1CCc2c(sc3nnn(CC(=O)NCc4ccco4)c(=O)c23)C1 (configuration not stated)
 : -0.63, -2.7
Cc1ccc(-n2ncc3c(N4CCCC4)ncnc32)cc1
 : ·, 1.5
CC1CCCCN1C(=O)CN1C(=O)CSc2ccc(S(=O)(=O)N3CCOCC3)cc21 (configuration not stated)
 : ·, -0.17
O=C1C2(c3ccccc3)CN3CC1(c1ccccc1)CN(C2)C3c1ccccc1O (configuration not stated)
 : -1, 1.2
COc1ccc(-c2nnc3c4cc5c(cc4n(Cc4ccccc4)cc2-3)OCO5)cc1
 : -0.9, -4.2
O=C(Nc1ccccc1)O/N=C/c1ccc(-c2ccc(F)cc2F)o1
 : -1.2, ·
COc1ccc(-n2cc3c(c2-c2ccc(Br)cc2)c(=O)n(C)c(=O)n3C)cc1
 : -1.9, 1.4
COc1ccc(C2=C(C)C(N3CCN(c4ccccn4)CC3)=NS2(=O)=O)cc1
 : -1.9, 1.2
O=C1CC(CSc2nnnn2-c2ccccc2)=NN1c1nc2ccccc2[nH]1
 : -2.4, -1
CC1Cn2cc(C(=O)NCCCN3CCOCC3)c(=O)c3c(Cl)ccc(c32)O1 (configuration not stated)
 : ·, 0.5
Cc1ccc2c(=O)cc(C(=O)NC3CCS(=O)(=O)C3)oc2c1C (configuration not stated)
 : -2.6, -1.1
O=C(Cn1cnc2c(oc3ccccc32)c1=O)NCC1CCCO1 (configuration not stated)
 : -0.69, ·
CCOC(=O)/C(N=Nc1ccc(OC)cc1)=C(/O)C=P(c1ccccc1)(c1ccccc1)c1ccccc1
 : -1.2, ·
Cc1nnc2sc(SCC(=O)NCc3ccc4c(c3)OCO4)nn2c1=O
 : ·, -0.86
CCCS(=O)(=O)c1ncc(Cl)c(C(=O)Nc2nc3ccc(F)cc3s2)n1
 : -0.82, 1.7
Fc1ccc(Nc2ncnc3c2nc2n3CCCCC2)cc1Cl
 : ·, -0.69
O=C(CC1(O)C(=O)N(CCc2ccccc2)c2ccccc21)c1cccc(-n2cccc2)c1 (configuration not stated)
 : -0.23, -1.6
O=C1CC(=O)Nc2cc(S(=O)(=O)N3CCN(Cc4ccc5c(c4)OCO5)CC3)ccc2N1
 : ·, 1.7
N#Cc1nc(COc2ccccc2)oc1NCc1cccnc1
 : -1.5, 2.3
Cc1nc(N2CCN(c3cccc(Cl)c3)CC2)nc2c1C(=O)CC(c1ccco1)C2 (configuration not stated)
 : 4.9, -0.46
Nc1nc2ncc(-c3ccccc3)c(N)n2n1
 : -1.1, 1.5
Cc1nn(CCCC(=O)NC2CCCC2)c(=O)c2nccn12
 : 0.06, 0.57
COc1ccc(NC(=O)NCc2c(-n3cccc3)sc3c2CCN(C)C3)c(OC)c1
 : ·, -4.5
Cc1ccc(S(=O)(=O)N2CCCC(c3nc(-c4ccncc4)no3)C2)cc1 (configuration not stated)
 : ·, 1.6
CCOCCCN=C1NS(=O)(=O)C(c2ccc(Cl)cc2)=C1C
 : -0.9, 0.57
COc1ccccc1N1C(=S)SC2CS(=O)(=O)CC21 (configuration not stated)
 : 0.06, ·
O=C(CSc1nc2ccccc2c(=O)[nH]1)Nc1cccc2nsnc12
 : 1.4, -2
N#Cc1cc2c(=O)n3ccccc3nc2n(-c2ccc(Cl)cc2)c1=O
 : -0.24, 0.42
O=C(Nc1nnc(-c2cccs2)s1)C(=O)c1c[nH]c2ccccc12
 : -3, 1.7
Cc1cc(C(F)(F)F)c2c(n1)sc1c(O)cc(=O)[nH]c12
 : 8.2, -7.1
COc1ccc(Nc2c(S(=O)(=O)c3ccccc3)cnc3cc(OC)c(OC)cc23)cc1OC
 : -0.16, 1.8
CCOc1ccc(/C(O)=C2/C(=O)C(=O)N(CCN(C)C)C23C(=O)N(CC)c2ccccc23)cc1 (configuration not stated)
 : 1.3, 0.34
O=C(NC(=O)N1CCSC1)c1c(F)cccc1Cl
 : -2.2, ·
COC(=O)c1sccc1S(=O)(=O)Nc1cc(Cl)c(OC)cc1OC
 : ·, 0.61
O=[N+]([O-])c1ccc(N2CCC(n3cccc3)CC2)cc1
 : -1.4, ·
Cc1nnc(NC(=O)CSc2nccn2Cc2ccco2)s1
 : ·, 2.4

Screening results deposited in PubChem by Center for Chemical Genomics, University of Michigan.
